Screening results: PubChem BioAssay, several laboratories
Beta cell apopt: inhibitors of cytokine-induced beta cell apoptosis, primary screen, luminescence. INS-1E cytokine-induced death, ATP luminescence, 48 h; percent of positive-control rescue, neutral wells zero. protection from apoptosis, % (concentration not given with the values). 0.8% of 300,000 active. AID 435005, 2010;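 active means all replicates at 75% or more, or half of them and the mean; inconclusive means half reach 75% but not the mean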;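 further: 0% = cytokine-treated negative control wells and 100% = positive control rescue; higher means more ATP so stronger rescue from cytokine killing; wells of about 40 µL received 100 nL stock; the first replicate is given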
rRNA inh HTS: reduced GFP signal of wild-type E. coli, primary screen, bacterial rRNA inhibitor project, GFP/RFP fluorescence, OD600, single point | E. coli WT GFP vs humanized-ribosome RFP mutants, 24 h; hits give low values; DMSO median 0, no signal -100 | GFP signal change (wild-type ribosome), % (no concentration beside the values) | 1.6% of 350,000 active | AID 720706, 2013;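 active means significant combined selectivity score with lowered wild-type GFP, culture density cut under 30%, mutant RFP and density less affected; inactive means any of these conditions unmet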; further: one replicate is shown; some compounds called inactive have numbers as strong as hits
Bfl-1 A1 inh: caspase 3/7 activation in MEF A1-2A-BIM cells, primary screen, A1 inhibitor project, cell-based, luminescence, HTS. Caspase-Glo 3/7 luminescence, 3 h; percent of clofoctol response, vehicle zero. caspase activation, % (test concentration not listed). 0.066% of 330,000 active;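 active means over half of replicate activation scores above 10%, or exactly half above 10 with the replicate mean above 10; inconclusive means replicate mean below 10 yet half the replicates above 10; inactive means over half of replicates below 10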;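 further: wells of about 30 µL received 50 nL stock; many hits fall short of the cut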
AF4-AF9 inh: inhibitors of AF4 peptide binding to AF9, primary screen, biochemical, AlphaScreen, biotin-AF4 peptide, FLAG-AF9, single point; Protein AF-9 (Homo sapiens), P42568; inhibition, % at 10 µM; AID 651704, 2012; 0.47% of 350,000 active;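 active means every replicate reaching a set inhibition limit, whatever the replicate mean, cut at about 25% in these data; inconclusive means mean inhibition reaches that limit but some replicates miss it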;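 further: 0% = plate neutral control median and 100% = total signal loss; the record names both 10 and 1 µM as test concentration; the first replicate is given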
Target sequence (P42568 whole entry, looked up): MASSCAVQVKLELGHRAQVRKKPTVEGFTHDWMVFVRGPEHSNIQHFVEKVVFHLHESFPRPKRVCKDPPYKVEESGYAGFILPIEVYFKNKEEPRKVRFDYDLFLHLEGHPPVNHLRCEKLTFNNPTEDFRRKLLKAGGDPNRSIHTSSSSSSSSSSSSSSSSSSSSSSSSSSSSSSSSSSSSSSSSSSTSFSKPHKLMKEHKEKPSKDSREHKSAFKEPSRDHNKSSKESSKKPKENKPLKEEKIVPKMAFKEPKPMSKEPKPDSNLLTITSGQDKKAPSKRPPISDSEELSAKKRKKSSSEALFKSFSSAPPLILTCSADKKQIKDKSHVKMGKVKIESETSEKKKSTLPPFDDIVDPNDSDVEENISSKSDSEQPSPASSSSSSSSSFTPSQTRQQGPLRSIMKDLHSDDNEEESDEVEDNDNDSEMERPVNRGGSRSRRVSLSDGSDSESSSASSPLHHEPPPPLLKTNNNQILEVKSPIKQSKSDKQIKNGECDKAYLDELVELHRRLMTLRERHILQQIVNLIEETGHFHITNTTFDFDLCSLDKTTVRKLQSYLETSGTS
Vif A3G: inhibitors of Vif binding to APOBEC3G peptide, primary screen, biochemical, TR-FRET, GST-Vif 1-94, biotin-A3G peptide, dose response retest (AID 1117319) | Virion infectivity factor (Human immunodeficiency virus type 1 group M subtype B (isolate … | TR-FRET GST-Vif / biotin-A3G peptide binding; higher % means a stronger effect; test concentration not given here; strong numbers were not always called active | one-dose inhibition, %; IC50 in µM for titrated hits | 0.57% of 260,000 active;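 active means above the screen mean plus three standard deviations and confirmed in dose response; inconclusive means results disagree or hit not tested in dose response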;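 further: Vif residues 1-94 fused to GST binding biotinylated APOBEC3G peptide 110-148; 0% = full assay without inhibitor and 100% = GST in place of GST-Vif; retest series ran down from 100 µM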
Calb FLC: C. albicans growth inhibition with fluconazole, primary screen, CaCi-2 strain, Alamar Blue fluorescence; C. albicans CaCi-2 (fluconazole-resistant clinical isolate) + fluconazole, 48 h; 0.57% of 300,000 active; growth inhibition, % (no concentration beside the values);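 active means most replicates above 75%; inconclusive means exactly half above 75%; inactive means most below 75%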;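 further: all wells also contain fluconazole at 8 µg/ml as a sub-toxic cotreatment; 0% = median of DMSO wells and 100% = median of geldanamycin control wells; wells of about 8 µL received 7.5 nL stock; the first replicate is given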
T cruzi inh: inhibitors of intracellular T. cruzi growth, primary screen, luminescence, NIH3T3 host cells. T. cruzi beta-gal in NIH3T3, 90 h. inhibition, % (test concentration not listed). 1.4% of 300,000 active. AID 1885, 2009;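 active means mean inhibition across valid replicates above about 55%, limit read from the data; inconclusive means mean below that limit but half or more replicates reach it; inactive means mean below it, under half of replicates reach it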;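 further: signal also drops with host cell toxicity which is not excluded here; 0% = plate median of DMSO wells and 100% = zero luminescence signal; higher percent means less beta-gal luminescence so fewer parasites; stock transfer was 50 nL into about 50 µL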
RanGTP-Impb inh: inhibitors of RanGTP-importin-beta interaction, primary screen, biochemical, FRET, CFP-Ran, YFP-importin-beta, homogeneous. cell-free CFP-Ran/YFP-importin-beta FRET ratio. inhibition, % (test concentration not listed). 1.1% of 300,000 active. AID 2216, 2009;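 active means most replicates above 15%; inconclusive means exactly half above 15%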;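 further: 0% = DMSO wells and 100% = Ran loaded with GDP instead of GTP; wells of about 40 µL received 100 nL stock; the first replicate is given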
rRNA inh HTS OD600: second read-out of rRNA inh HTS, no call of its own (marks repeat the call); OD600 change, %; measured here: OD600 growth;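 optical density of the mix in the first replicate; 0 = DMSO median and -100 = no signal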
rRNA inh HTS RFP: recorded beside rRNA inh HTS, whose call it bears; RFP signal change, %; measured here: RFP humanized mutant strains;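 first replicate; 0 = DMSO median and -100 = no signal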
* marks the source's active call; other numbers are inactive results; u = inconclusive; x = no result given.

SMILES | Beta cell apopt | rRNA inh HTS | rRNA inh HTS OD600 | rRNA inh HTS RFP | Bfl-1 A1 inh | AF4-AF9 inh | Vif A3G | Calb FLC | T cruzi inh | RanGTP-Impb inh
CCOC(=O)[C@@H]1[C@H]2COc3cc(OC)ccc3[C@@H]2N2C(=O)N(c3ccccc3)C(=O)[C@@]12C | -2 | -1 | -5 | -13 | 1.4 | 1.3 | x | x | x | x
O=C(CSc1nnc(-c2ccncc2)o1)NCc1ccccc1Cl | -9 | 4 | 21 | 4.1 | 0.4 | -2.5 | 9% | 5 | -4 | 6.1
CC(=O)Nc1ccc(S(=O)(=O)N2C3CCCC2CC(NC(=O)C2CCCCC2)C3)cc1 (stereo unspecified) | 4 | x | x | x | 0.8 | x | -7% | 2 | -6 | 1.4
Nc1c(Br)cc(Br)c(N2CCCC2=O)c1Br | -3 | x | x | x | 0.5 | x | 0% | 6 | 3 | -1.2
COc1cc(C)nc(-c2csc(C)n2)n1 | -1 | 12 | 2 | -2.5 | 1.7 | -1.8 | 28% | -3 | -33 | -2.8
Nc1ccccc1OCP(=O)(c1ccccc1)c1ccccc1 | -5 | 14 | 10 | -0.5 | 0.7 | -0.1 | 32% | -21 | -8 | u
CCCS(=O)(=O)c1c(S(=O)(=O)CCC)c2c(N)cccn2c1C(=O)c1ccc(F)cc1 | 2 | x | x | x | -1.6 | x | 9% | 10 | 3 | -3.8
O=C(COC(=O)c1ccccn1)NCc1ccccc1Cl | -9 | -1 | 6 | 0.9 | 1.1 | -7.1 | x | -17 | -4 | 2.4
Cc1noc(C)c1S(=O)(=O)N1CCC(C(=O)N2CCN(C(=O)c3ccco3)CC2)CC1 | -3 | x | x | x | 0.5 | x | 1% | -2 | -2 | 3.3
CCN(CC)S(=O)(=O)c1ccc(N2CCN(S(=O)(=O)c3ccc4c(c3)OCCO4)CC2)nc1 | 3 | x | x | x | 0.6 | x | 23% | 0 | 25 | 1.5
CC(=O)Nc1ccc(NC(C)=O)c(NC2OCC(O)C(O)C2O)c1 (stereo unspecified) | -3 | 8 | 5 | -4.0 | 0.2 | 3.8 | 2% | -2 | 5 | -2.1
COc1ccccc1CNC(=O)C1CCCN(S(C)(=O)=O)C1 (stereo unspecified) | x | 11 | 3 | -6.3 | 0.8 | -1.1 | 23% | 4 | -14 | 0.5
CC(C)c1ccc(CSc2ccc(S(=O)(=O)N3CCOCC3)cn2)cc1 | -3 | 4 | -2 | 0.5 | -1.1 | -1.8 | 6% | x | x | x
COc1ccc(-c2cn3c(C)c(C(=O)N4CCc5ccccc5C4)sc3n2)cc1 | 2 | x | x | x | 2.2 | x | x | 1 | 24 | -2.3
CCOC(=O)C1=C(COC(=O)C(C)(C)Oc2ccc(Cl)cc2)NC(=O)NC1C (stereo unspecified) | -7 | -12 | -26 | -1.8 | 0.9 | 0.0 | x | x | x | x

3 of the entries above in order of the Vif A3G value, rising.
structure | Vif A3G
Nc1c(Br)cc(Br)c(N2CCCC2=O)c1Br | 0%
CC(C)c1ccc(CSc2ccc(S(=O)(=O)N3CCOCC3)cn2)cc1 | 6%
COc1ccccc1CNC(=O)C1CCCN(S(C)(=O)=O)C1 (stereo unspecified) | 23%

Later entries:
SMILES | Beta cell apopt | rRNA inh HTS | rRNA inh HTS OD600 | rRNA inh HTS RFP | Bfl-1 A1 inh | AF4-AF9 inh | Vif A3G | Calb FLC | T cruzi inh | RanGTP-Impb inh
Cc1c(NC(=S)NC(=O)CCc2ccccc2)c(=O)n(-c2ccccc2)n1C | -2 | 1 | 7 | 2.5 | 0.4 | -2.5 | 2% | -3 | -15 | 2.0
O=C(NC(=S)NNC(=O)c1ccccc1F)c1cccnc1 | 3 | -19* | -3.3* | -3.8* | -1.1 | -1.4 | x | -1 | -9 | u
N/C(=N\OC(=O)c1ccco1)c1cccnc1 | -3 | 11 | 6 | -4.8 | -0.6 | -0.1 | x | -5 | 12 | -2.7
CCC1CCCCN1CCCNC(=O)c1ccc2c(=O)n(Cc3ccc(OC)cc3)c(=O)[nH]c2c1 (stereo unspecified) | -2 | x | x | x | -0.1 | x | 1% | 1 | -1 | 4.5
Cc1ccc(NC2CCCN(C(=O)CCC(=O)c3ccccc3)C2)cc1C (stereo unspecified) | x | -15 | -10 | 1.5 | x | 11 | x | -15 | -3 | -11
COc1ccc(/C=N/NC(=O)C2c3ccccc3-c3ccccc32)cc1 | -8 | 0 | 2 | -0.8 | 0.8 | 8.7 | 8% | 4 | -4 | 1.0
O=C(CCN1CCc2ccccc2C1)Nc1ccc(F)c(F)c1 | -7 | 3 | 1 | -3.7 | 0.5 | 3.7 | 8% | 2 | 12 | 6.1
Cc1cccc(CCNC(=O)CCCOc2cc(=O)n(C)c3ccccc23)c1 | 3 | -31 | -33 | -3.4 | 0.1 | -0.5 | 13% | 52 | 4 | -1.4
Cc1ccc(/C=C(\C#N)c2nn(-c3ccccc3)c(N)c2C#N)cc1 | -6 | x | x | x | 0.3 | x | x | 0 | 20 | u
CC1(C)Oc2nc3ccccc3n2/C1=C\C#N | -1 | x | x | x | -0.3 | x | u | -4 | -3 | -2.7
O=C(NCc1cccnc1)c1cccc(OC2CCN(Cc3ccc(CO)o3)CC2)c1 | 6 | 1 | 9 | -1.4 | -0.4 | -2.8 | -1% | 4 | 0 | 4.4
Fc1cc(F)c(C2SCCN2C(=S)Nc2cccc(C(F)(F)F)c2)c(F)c1 (stereo unspecified) | -8 | -50 | -48 | -13 | 0.2 | -1.9 | 4% | -4 | 26 | 2.7
CC(=O)N1c2ccc(S(=O)(=O)NCCC(=O)NC3CCC(C)CC3)cc2CC1C (stereo unspecified) | x | 10 | 11 | 1.2 | -0.4 | -5.7 | -10% | -9 | -11 | 3.5
CCOCCCNC(=O)CN1CCN(S(=O)(=O)c2ccc3c(c2)CCC3)CC1 | -4 | 1 | -2 | 0.2 | 1.0 | -0.6 | -2% | x | x | x
CCCNC(=O)C1CCN(S(=O)(=O)c2c(C)noc2/C=C\c2ccc(OC)cc2)CC1 | -1 | -5 | -1 | 1.5 | -0.5 | 0.9 | -1% | 7 | 5 | 2.0
O=C(CN1C(=O)NC(Cc2c[nH]c3ccccc23)C1=O)NC1CC1 (stereo unspecified) | -3 | 12 | 9 | -5.0 | 0.4 | -5.2 | x | -2 | 4 | 2.5
Cc1cccc(/C(N)=N/OC(=O)c2ccc3c(c2)OCO3)c1 | -1 | x | x | x | 0.3 | x | x | -3 | 1 | -4.4
COc1cc(CNCCC2CCOC(C)(C)C2)ccc1O (stereo unspecified) | -3 | x | x | x | -0.1 | x | 18% | 2 | 47 | 0.7
O=C(O)CSc1nnc(CNc2ccc(F)cc2)n1-c1ccccc1 | 1 | 2 | -3 | 0.7 | 0.1 | 1.1 | 8% | 4 | 2 | 1.4
CCn1ncc(/C=N\NC(=O)COc2cc(C)cc(C)c2)c1C | -6 | 8 | 19 | 0.8 | 0.2 | 2.4 | -4% | -3 | -14 | -1.4
O=C1CCC(C(=O)Nc2ccccc2N2CCCC2)=NN1 | 0 | 11 | 22 | 2.3 | 0.1 | 4.1 | 21% | -6 | 15 | 1.5
c1ccc(CN2OCC3Cn4c(nc5ccccc54)C32)cc1 (stereo unspecified) | -7 | 12 | 5 | -9.4 | 0.0 | -3.4 | 3% | -12 | -16 | 6.4
O=S(=O)(N/N=C\c1c(F)cccc1Cl)c1ccc(Cl)cc1 | -1 | x | x | x | -0.2 | x | 1% | -8 | -5 | 0.8
CCN(CC(=O)Nc1ccccc1C(F)(F)F)C(=O)c1cccc(N2C(=O)CCC2=O)c1 | -4 | 9 | 9 | -1.6 | 0.0 | 2.0 | 1% | -7 | -14 | 3.4
COc1ccc2nc(NC(=O)CC3Oc4ccccc4NC3=O)sc2c1 (stereo unspecified) | -3 | 4 | -1 | -7.4 | -0.5 | -57 | -5% | 1 | -9 | -3.4
O=C(O)c1ccccc1C(=O)c1ccc(Br)s1 | x | -13 | -9 | -16 | 0.1 | -1.0 | -4% | 9 | -5 | -2.6
O=C(CSc1n[nH]c(=O)n1C1CC1)c1ccc(F)cc1 | -1 | 2 | -4 | -3.2 | -1.0 | 1.2 | -2% | -2 | -10 | 0.4
O=C(Nc1ccc(N2C(=O)C3C4C=CC(C4)C3C2=O)cc1)Nc1cccnc1 (stereo unspecified) | -2 | x | x | x | -0.3 | x | 1% | -6 | -12 | 1.7
CCOc1cc(CNCc2cccs2)ccc1OCC(=O)NC(C)(C)C | 0 | x | x | x | -0.3 | x | x | -21 | 4 | -0.4
CCCCn1c(N)c(N(CCOC)C(=O)c2cc(S(=O)(=O)N3CCCCC3)ccc2C)c(=O)[nH]c1=O | -1 | 6 | 0 | -1.4 | 1.3 | -0.4 | -6% | 6 | -9 | -0.1

Single records (already shown).
Profile of CCn1ncc(/C=N\NC(=O)COc2cc(C)cc(C)c2)c1C → Beta cell apopt: -6; rRNA inh HTS: 8; rRNA inh HTS OD600: 19; rRNA inh HTS RFP: 0.8; Bfl-1 A1 inh: 0.2; AF4-AF9 inh: 2.4; Vif A3G: -4%; Calb FLC: -3; T cruzi inh: -14; RanGTP-Impb inh: -1.4
Profile of O=C(O)c1ccccc1C(=O)c1ccc(Br)s1 → Beta cell apopt: x; rRNA inh HTS: -13; rRNA inh HTS OD600: -9; rRNA inh HTS RFP: -16; Bfl-1 A1 inh: 0.1; AF4-AF9 inh: -1.0; Vif A3G: -4%; Calb FLC: 9; T cruzi inh: -5; RanGTP-Impb inh: -2.6

Additional entries:
SMILES | Beta cell apopt | rRNA inh HTS | rRNA inh HTS OD600 | rRNA inh HTS RFP | Bfl-1 A1 inh | AF4-AF9 inh | Vif A3G | Calb FLC | T cruzi inh | RanGTP-Impb inh
COc1ccc(CN2CC(C(=O)NCCc3ccc(C)cc3)CC2=O)cc1 (stereo unspecified) | -5 | x | x | x | 0.0 | x | 3% | -3 | -13 | -1.0
CCN(CC)c1ncnc2c1[nH]c1ccccc12 | 11 | x | x | x | 0.3 | x | 1% | -2 | -4 | -3.3
CC(=O)NC(CCS(C)(=O)=O)C(=O)Nc1nc(C)cs1 (stereo unspecified) | -7 | x | x | x | -0.2 | x | 3% | 2 | -12 | -2.0
COc1ccc(/C=C/C(=O)NCc2c(C)nn(C)c2C)cc1COc1ccc(Br)cc1 | -2 | x | x | x | 0.0 | x | -3% | 3 | 44 | 0.8
CCC1SC2=NC(C)=C(C(=O)OC)C(c3ccc(C(=O)OC)cc3)N2C1=O (stereo unspecified) | -2 | x | x | x | 1.0 | x | 64% | -7 | 13 | 0.9

A portion of the library; the hit share may differ from the screen's.
